Prx2 Sm inh = Schistosoma mansoni Prx2 inhibition | S. mansoni Prx2 activity coupled to TGR/GSH (TGR is thioredoxin glutathione reductase), NADPH fluorescence loss, qHTS; some inactives read as strong as hits | 65,000 compounds, 0.07% hits | Potency, µM; active means full or partial inhibition curve with a strong effect at the top dose; inconclusive means weaker partial or single-point curve; inactive means no accepted curve; note: series up to 57 µM; many of its hits are not listed in these tables
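Enzyme mix: 100 uM NADPH, 25 nM TGR, 700 uM GSH, 50 nM Prx2 in 100 mM phosphate pH 7.4, 10 mM EDTA, 0.01% Tween-20. 15 min RT with compound; NADPH/GSH added, H2O2 starts reaction; NADPH fluorescence read 8 min.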
Anthrax LT inh = blocks cellular internalization of anthrax lethal toxin; 70,000 compounds, 0.67% hits; Cells, anthrax lethal toxin internalization, FRET ratio (460/530); Potency, µM (titrated, usually from 40 µM), without a hit: at the top dose activity change, negative = inhibition, hits mostly inhibitors; AID 912; active = well fitted falling ratio curve with the 530 nm signal flat; inconclusive = other ratio curves, or a change in one channel alone; inactive = flat curves in the ratio and both channels; the % refers to the ratio; note: % is set by controls: 0 for no effect and ±100 for the full control effect; nearly all actives have a fitted effect of over 50% in size; tested in ME-180 cells; beta-lactamase reporter
Active calls of the source: *; ? = inconclusive; . = not tested or not shown; & = joins results of further samples; [ ] = dose if it differs, or a comment. Potency is the fitted concentration of half-maximal effect.

SMILES	Prx2 Sm inh	Anthrax LT inh
COc1ncc2nc(-c3cc(F)cc(F)c3)c(=O)n(Cc3cccs3)c2n1	>57	?
Cc1ccc(C2C3=C(CC(C)(C)CC3=O)Nc3n[nH]c(C)c32)cc1 (stereo not given)	>57	29%
COc1ccc(N=C2SC(C(=O)O)CC(=O)N2Cc2ccc(OC)c(OC)c2)cc1 (stereo not given)	>57	-4%
CC(=O)N1CCC2(CCCN(c3ccccn3)C2)CC1	>57	-3%
O=C(COC(=O)c1ccc(S(=O)(=O)N2CCOCC2)cc1)Nc1nc(-c2ccccc2)cs1	>57	5%
CCOc1ccc(N(CC(=O)Nc2ccccc2C)S(=O)(=O)c2c(C)noc2C)cc1	>57	?
Cc1nonc1NC(=O)CSc1nnc(-c2ccoc2C)n1C	>57	-15%
Cn1c(=O)c2c(nc(CN3CCN(CCO)CC3)n2CCc2ccccc2)n(C)c1=O	>57	16%
O=C(CCN1C(=O)c2ccccc2C1=O)Nc1ccncc1	.	6%
Cc1nc(N2CCN(c3ccccc3)CC2)nc2c1C(=O)CC(c1ccccc1)C2 (stereo not given)	>57	.
CC(=O)c1nc(N2C(=O)C3CC=C(C)CC3C2=O)sc1C (stereo not given)	>57	7%
CCCCCOc1ccc(NC(=O)CCCC(=O)O)cc1	.	13%
O=c1cc(O)c2c(=O)n(-c3ccccc3)c3ccccc3c2o1	>57	-9%
COc1ccccc1N1CCN(CC(=O)c2ccc3ccn(C(C)=O)c3c2)CC1	>57	12%
Cc1ccc(-n2sc3ccccc3c2=O)cc1S(=O)(=O)N1CCCCC1	.	?
CCOC(=O)c1c(NC(=O)CSc2nnnn2C)sc(C)c1C	>57	11%
COc1ccc(OC)c(C(=O)COC(=O)c2ccc(C)o2)c1	>57	3%
CCc1cc2c(cc3c(=O)n(CC(=O)N4CCN(c5ccccn5)CC4)nc(CC)n32)s1	>57	-1%
O=C(O)C1CCN1C1CCCCC1 (stereo not given)	>57	-1%
Cc1sc2ccccc2[n+]1CCC(=O)O	>57	-14%[8 µM]

Fetched by structure from the entries so far (4):
SMILES	Prx2 Sm inh	Anthrax LT inh
O=C(COC(=O)c1ccc(S(=O)(=O)N2CCOCC2)cc1)Nc1nc(-c2ccccc2)cs1	>57	5%
Cc1ccc(C2C3=C(CC(C)(C)CC3=O)Nc3n[nH]c(C)c32)cc1 (stereo not given)	>57	29%
O=C(O)C1CCN1C1CCCCC1 (stereo not given)	>57	-1%
CCOc1ccc(N(CC(=O)Nc2ccccc2C)S(=O)(=O)c2c(C)noc2C)cc1	>57	?

Back to the main list, repeating the five entries before the break.
SMILES	Prx2 Sm inh	Anthrax LT inh
CCOC(=O)c1c(NC(=O)CSc2nnnn2C)sc(C)c1C	>57	11%
COc1ccc(OC)c(C(=O)COC(=O)c2ccc(C)o2)c1	>57	3%
CCc1cc2c(cc3c(=O)n(CC(=O)N4CCN(c5ccccn5)CC4)nc(CC)n32)s1	>57	-1%
O=C(O)C1CCN1C1CCCCC1 (stereo not given)	>57	-1%
Cc1sc2ccccc2[n+]1CCC(=O)O	>57	-14%[8 µM]
Cc1cc(NC(=O)CC(CN(C)S(=O)(=O)c2ccccc2)c2ccccc2)no1 (stereo not given)	>57	-6%
CCOc1cc(C2/C(=C(/O)c3ccc(OC(C)C)cc3)C(=O)C(=O)N2CCCOC)ccc1O (stereo not given)	>57	.
O=C(c1cc(C(F)(F)F)cc(C(F)(F)F)c1)N1CCC2(CCN(Cc3ccccc3)CC2)CC1	>57	2%
Cc1occc1C(=O)NC(C)CCc1ccccc1 (stereo not given)	.	-2%
O=C(OCC#CCSc1nnc(-c2ccncc2)o1)c1cccs1	>57	3%
CCc1ccc2nc(NC3=NCN(CCCN4CCOCC4)CN3)nc(C)c2c1	>57	-15%
CCCC(=O)Nc1ccccc1NC(=O)CCC	>57	13%
O=C1[C@@H]2[C@H]3C(=CC[C@@H]2C(=O)N1Cc1ccccc1)C1(OCCCO1)[C@H]1O[C@@H]1[C@H]3O	.	-2%[8 µM]
CC(=O)Nc1cccc(NC(=O)C2CC3CCC2C3)c1 (stereo not given)	>57	-9%
O=C(NCCN1CCOCC1)c1c(F)c(F)c(F)c(F)c1F	>57	-3%
Cc1nc(NC(=O)C2CC3CCCC(C2)C3=O)sc1C (stereo not given)	>57	?
COc1ccc(NC2=C(C)C(=O)CC2)cc1	.	15%
CCN(CC)CCN1C(=O)c2oc3ccccc3c(=O)c2C1c1ccccc1 (stereo not given)	>57	?
O=C(CCCn1c(=S)[nH]c2cc3c(cc2c1=O)OCO3)NC1CC1	.	2%
O=C(NC1=NCCS1)c1cc2ccccc2o1	.	-9%
OC(Cc1nc2ccccc2[nH]1)c1ccccc1Cl (stereo not given)	>57	11%
Cc1ccc(-c2nn3c(C)nnc3s2)cc1N	>57	-7%
CC(C)(C)c1cc(NC(=O)C2CCCO2)no1 (stereo not given)	>57	0%
Nc1ccccc1C#Cc1ccccc1	>57	-10%
COc1ccc(Cl)cc1N1C(=O)[C@@H]2C(c3cccc(OC)c3OC)=NO[C@@H]2C1=O	>57	-7%
NS(=O)(=O)c1ccc(NCc2cnc3ccccc3c2)cc1	>57	-6%[8 µM]
COc1ccc(CNC(=O)c2cc3c(=O)n4ccccc4nc3n(Cc3cccnc3)c2=N)cc1	>57	-3%
CS(=O)(=O)Nc1ccccc1C(=O)N1CCCC1	>57	5%
Nc1ncnc2c1ncn2CCCCC(=O)O	>57	-6%[8 µM]
Cc1csc(NC(=O)C2CCCO2)n1 (stereo not given)	>57	4%
COCCN1C(=O)c2oc3cc(C)c(C)cc3c(=O)c2C1c1cccc(O)c1 (stereo not given)	>57	4%
C=CCn1c(SCc2nc3ccccc3nc2C)nnc1-c1ccoc1C	>57	-28%
CC(=O)N1CCc2cc(Br)cc(S(=O)(=O)N3CCCCCC3)c21	>57	6%
O=C1CC(c2cccc(Oc3ccccc3)c2)NC(=O)N1 (stereo not given)	>57	-20%
Brc1ccc2oc3c(N4CCOCC4)ncnc3c2c1	>57	-11%
COc1ccc(NC(=O)CSc2nnc(-c3ccc(C)cc3)n2N)cc1	>57	3%
CCOC(=O)C1CCc2nc3ccccc3c(=O)n21 (stereo not given)	.	5%
Cc1onc(-c2ccccc2Cl)c1C(=O)OCC(=O)Nc1ccc2c(c1)OCO2	>57	-16%
COc1ccc(OC)c(N=Cc2c(O)[nH]c3ccccc23)c1	>57	?
CCOC(=O)c1cccc(NC(=O)c2cccs2)c1	>57	-9%
COc1ccc(CCNC(=O)CSc2nc(-c3ccco3)cc(C(F)(F)F)n2)cc1	>57	-8%
COC(=O)c1nnn(Cc2ccccc2)c1N	>57	7%
Cc1ccc(-c2nn3c(C)nnc3s2)cc1NC(=O)c1ccc(OC(C)C)cc1	>57	?
CN1CCN(Cc2nc3c(c(=O)n(C)c(=O)n3C)n2CCCc2ccccc2)CC1	>57	-12%
Cc1ccc(C)c(N2CCN(C(=O)C3CCCN(S(=O)(=O)c4c(C)noc4C)C3)CC2)c1 (stereo not given)	>57	?
COc1ccc(S(=O)(=O)N2CCN(c3ncnc4c(-c5ccccc5)nsc34)CC2)cc1	>57	-16%
c1ccc(-n2nnc3ccccc32)nc1	>57	.
CCc1nc(SCC(=O)Nc2ccc(C(=O)O)cc2)n[nH]1	>57	-5%
O=C(Nc1ccc2c(c1)OCO2)c1cn(Cc2ccc(F)cc2)nn1	>57	?
COc1ccccc1OCC(=O)O	>57	-1%
c1ccc(-c2nc3cnccn3c2Nc2ccc3c(c2)OCCO3)cc1	>57	13%
Cc1cc(C(=O)OCC(=O)c2c(N)n(C)c(=O)n(C)c2=O)c(C)o1	>57	2%
CCN(CC)S(=O)(=O)c1ccc(-c2nnc(SCC(=O)Nc3nc(C)cs3)o2)cc1	>57	6%
COc1cc2c(cc1OC)-c1cc(NC3CCCCCCC3)nc(=O)n1CC2	>57	.
CC[C@H](CO)NC(=O)[C@H]1C=C2c3cccc4[nH]cc(c34)C[C@H]2N(C)C1	>57	-1%
CCc1ccc(N2CC(C(=O)NCc3ccc4c(c3)OCO4)CC2=O)cc1 (stereo not given)	>57	-10%
CS(=O)(=O)N(CC(=O)Nc1cccnc1)c1ccc2c(c1)OCO2	>57	6%
CCOC(=O)C1=C(c2ccccc2)Nc2ncnn2C1c1cccc(OC)c1OC (stereo not given)	>57	?
CCCN1CCN(C(=O)CN2C(=O)CC(C)(C)S(=O)(=O)c3ccccc32)CC1	>57	3%
COc1ncc2nc(-c3cc(F)cc(F)c3)c(=O)n(CCC#N)c2n1	>57	-6%
CC(=NCCCNC1CCCCC1)C1=C(O)CC(C)(C)CC1=O	.	-7%
COc1ccccc1-n1c(CNC(=O)COc2ccccc2)n[nH]c1=S	>57	6%
CC(=O)N(C1=NCCCS1)c1ccc(F)cc1	>57	-22%
CCCCN(C)C(=O)c1sc2ncn(CC)c(=O)c2c1C	>57	9%
O=C(OCn1nnc2ccccc2c1=O)C1=COCCO1	>57	-2%
Following part
SMILES	Prx2 Sm inh	Anthrax LT inh
CCOc1ccc(S(=O)(=O)Nc2ccccc2C(=O)NCc2ccco2)cc1	>57	0%
COc1ccc(-c2nc(CSCC(=O)N3CCc4ccccc4C3)c(C)o2)cc1OC	>57	?
O=C(OCCCCN1C(=O)c2ccccc2C1=O)c1n[nH]c2ccccc12	>57	-25%
O=C1c2oc3ccc(Br)cc3c(=O)c2C(c2cccc(F)c2)N1CCO (stereo not given)	>57	?
COc1ccccc1CN1CC[C@@]2(CCCN(C(=O)c3ccncc3)C2)C1	>57	8%
CCn1nc(NS(=O)(=O)c2ccccc2)c2cc3cccc(C)c3nc21	>57	-12%
CC(C)OCCCN1C(=O)c2[nH]nc(-c3ccccc3O)c2C1c1cccc(Cl)c1 (stereo not given)	>57	?
CN1CCN(Cc2c(C#N)c3ccccc3n2C)CC1	>57	3%
COc1ccc(S(=O)(=O)Nc2ccccc2C(=O)OC2CCCN(C)C2)cc1OC (stereo not given)	>57	-4%
O=C(NCc1nnc(SCC(=O)N2CCCCCC2)o1)c1ccco1	>57	9%
Cc1ccc(-c2[nH]c(=O)n3ccncc23)s1	>57	0%
O=C(CSc1nnnn1-c1ccccc1)N1CCN(C(=O)c2ccco2)CC1	>57	2%
COc1cccc(NC(=O)NCCCN2CCN(c3ccc(F)cc3)CC2)c1	>57	-6%
CCN(CC)S(=O)(=O)c1ccc(NC(=O)CN(c2cccc(F)c2)S(C)(=O)=O)cc1	>57	-11%
c1ccc(N(c2ccccc2)c2nc(N3CCCC3)nc(-n3ccnc3)n2)cc1	>57	-15%
COC(=O)C1=CN(C(C)C)C=C(C(=O)OC)C1c1cc2c(cc1Br)OCO2	>57	.
CC(=O)Oc1ccccc1N1C(=O)c2ccc(C(=O)O)cc2C1=O	.	-3%
COc1ccc(C(=O)N2CCC3(CCCN(C(=O)NC(C)C)C3)CC2)cc1	>57	-6%
Cc1ccccc1CN1C(=O)C(O)(CC(=O)c2ccncc2)c2ccccc21 (stereo not given)	>57	?
COc1ccc(CCNc2oc(COc3ccc(F)cc3)nc2C#N)cc1	.	5%

Part of the list above in order of count of non-hydrogen atoms, largest number first:
SMILES	Prx2 Sm inh	Anthrax LT inh
COc1ccc(CNC(=O)c2cc3c(=O)n4ccccc4nc3n(Cc3cccnc3)c2=N)cc1	>57	-3%
COC(=O)C1=CN(C(C)C)C=C(C(=O)OC)C1c1cc2c(cc1Br)OCO2	>57	.
O=C(NCc1nnc(SCC(=O)N2CCCCCC2)o1)c1ccco1	>57	9%
CCOC(=O)c1cccc(NC(=O)c2cccs2)c1	>57	-9%

(continued)
SMILES	Prx2 Sm inh	Anthrax LT inh
S=c1oc(-c2ccncc2)nn1CCc1ccncc1	>57	17%
COC1=CC(=O)OC(CCc2ccccc2)C1 (stereo not given)	.	0%
C[C@](O)(c1ccccc1)c1nccc2ccccc12	>57	-5%[8 µM]
C/C(Cl)=C\CNC(C)c1ccccc1 (stereo not given)	>57	-5%
CCNC(=O)NC(C(=O)OC)C12CC3CC(CC(C3)C1)C2 (stereo not given)	>57	-5%
COCCCNC(=O)CCCn1c(=O)c2ccccc2n(CC(=O)Nc2c(C)cc(C)cc2C)c1=O	>57	12%
COC(=O)COc1ccc(C(=O)OC)cc1	>57	6%
Cc1ccc(C2SCC(=O)Nc3c2c(=O)[nH]n3C2CCOC(C)(C)C2)cc1 (stereo not given)	>57	6%
Cc1c(C(=O)NC(C)C)oc2c1-c1[nH]ncc1CC2	>57	2%
O=C(Nc1nc2n(n1)C(c1ccccc1)CC(c1ccc(Cl)cc1)N2)c1ccco1 (stereo not given)	>57	?
COc1ccc(OCC(O)COc2ccc(C(=O)O)cc2)cc1 (stereo not given)	>57	5%
O=C(COC(=O)c1ccccn1)Nc1nccs1	>57	3%
O=c1cc(O)c2c(=O)[nH]c(=O)n(-c3ccccc3)c2[nH]1	>57	-4%
Cc1cc(Cl)ccc1NC(=O)CSc1nnc(-c2ccncc2)n1Cc1ccco1	>57	-8%
CCOC(=O)c1[nH]c2ccc(OCC)cc2c1NC(=O)CN1CCC2(CC1)OCCO2	>57	14%
N[C@@]1(C(=O)O)CC[C@H](C(=O)O)C1	>57&>57&>57	2%&-11%&-9%
CN(C)c1ccc(C(=N)c2ccc(N(C)C)cc2)cc1	.	?
O=c1cc(N2CCC3(CC2)OCCO3)[nH]c(=O)n1-c1ccc(Br)cc1	>57	-6%
COC(=O)c1ccccc1NC(=O)Cn1cc(Br)cn1	>57	-3%
Cc1ccc(S(=O)(=O)NC(=O)NCc2ccccn2)cc1	>57	-11%

Bioassay records (PubChem)

The list is partial, so the mix of outcomes need not match the whole.
